# Screening results as filed in PubChem.
# Marburg entry inh – Marburg virus entry inhibition. Marburg virus pseudotyped entry inhibition, cell reporter; control for the full effect not named in the record; about a third of the inactives were read at about 46 µM. Potency, µM (titrated, usually from 37.8 µM), for inactives: at the top dose activity change, negative = inhibition, most hits filed as inhibitors. actives 1.8% (n = 300,000); active = well fitted inhibition curve with a large enough effect; inconclusive = small, poorly fitted or top-dose-only effect, or effect the other way; inactive = flat fitted curve, though single readings scatter; tested in HEK293 cells; about a fifth of its hits are not listed in these tables; note: % is set by controls: 0 for no effect and ±100 for the full control effect; luciferase read-out
# Lassa entry inh – Lassa virus entry inhibition; Lassa virus pseudotype entry inhibition, cell reporter; control for the full effect not named in the record; Potency, µM (doses to about 37.9 µM), without a hit: at the highest dose activity change, negative = inhibition, hits mostly inhibitors; actives 1.2% (n = 300,000); active means well fitted inhibition curve with a large enough effect; inconclusive means small, poorly fitted or top-dose-only effect, or effect the other way; inactive means flat fitted curve, though single readings scatter; tested in HEK293 cells; note: % is set by controls: 0 for no effect and ±100 for the full control effect; nearly all actives have a fitted effect of over 50% in size; luciferase read-out
# NS1 inh – inhibitors of influenza NS1 protein function | S. cerevisiae slowed by influenza A NS1, growth recovery by OD600 | Potency, µM (titrated, usually from 46.1 µM), for inactives: top-dose activity, positive = more growth | actives 0.4% (n = 270,000) | AID 2326; active means well fitted rising curve with a large enough effect; inconclusive means small, poorly fitted or top-dose-only effect; inactive means no such curve, though single readings can be large or run the other way; note: nearly all actives have a fitted effect of over 50% in size
#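 Compounds were scored for reversing the slow growth caused by influenza A NS1 in S. cerevisiae, measured by optical density at 600 nm. Assay medium contained 2% galactose at pH 6.0; NS1-free yeast of the same strain were the positive control.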
# Cruzain Triton – cruzain (T. cruzi) inhibition with detergent; purified cruzain, Z-FR-AMC fluorescence, 0.01% Triton; P25779; actives 0.43% (n = 200,000); AID 1478; Potency, µM, without a hit: max response, negative = inhibition, usual class: inhibitors;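 note: plate controls were neutral wells for no effect and buffer without enzyme for full effect; nearly all actives have a fitted effect of over 40% in size; top concentration of the series not given in the record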
# Target sequence (P25779 123-467 limits assumed): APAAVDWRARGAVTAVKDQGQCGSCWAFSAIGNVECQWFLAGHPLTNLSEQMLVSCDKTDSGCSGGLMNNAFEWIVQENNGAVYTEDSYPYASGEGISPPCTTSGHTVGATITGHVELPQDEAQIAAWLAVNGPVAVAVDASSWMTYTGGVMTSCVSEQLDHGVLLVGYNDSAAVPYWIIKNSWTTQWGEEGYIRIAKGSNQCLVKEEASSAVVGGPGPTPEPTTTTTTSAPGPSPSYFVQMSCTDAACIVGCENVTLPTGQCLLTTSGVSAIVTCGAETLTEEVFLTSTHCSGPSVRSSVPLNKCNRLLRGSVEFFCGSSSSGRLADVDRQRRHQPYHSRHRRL
#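 Read-out: AMC fluorescence (360 nm excitation, 450 nm emission), four reads over 2 min, first-to-third difference used. Conditions: cruzain 1.5 nM, Z-FR-AMC 2 uM, pH 5.5 acetate, 5 mM DTT, 0.01% Triton X-100.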
# RE007 growth inh – less growth of the S. pombe RE007 Vpr strain; S. pombe RE007 Vpr strain, BacTiter-Glo ATP luminescence, 24 h; control for the full effect not named in the record; Potency, µM (doses to about 92.2 µM), without a hit: at the highest dose activity change, negative = less growth; actives 0.21% (n = 360,000); active = well fitted falling curve with a large enough effect; inconclusive = small, poorly fitted or top-dose-only effect; inactive = no such curve, though single readings can be large or run the other way;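 note: % is set by controls: 0 for no effect and ±100 for the full control effect; nearly all actives have a fitted effect of over 50% in size; the assay follows cell death caused by Vpr and the record does not say whether a fall means rescue or toxicity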
#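 Fission yeast strain RE007, carrying one chromosomally integrated HIV-1 vpr copy, was seeded at OD 0.01 in PMG+AL medium with 23 nL pinned compound. After 24 h at 30 °C and 99% humidity, viability was read by BacTiter-Glo luminescence.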
# SARS PLP yeast – SARS-CoV PLP inhibition in yeast. S. cerevisiae expressing SARS-CoV PLpro, growth rescue; control for the full effect not named in the record. Potency, µM (highest dose often 32.9 µM), for inactives: at the top dose activity, positive = growth rescue. actives 0.19% (n = 330,000). AID 485353; active means well fitted rising curve with a large enough effect; inconclusive means small, poorly fitted or top-dose-only effect; inactive means no such curve, though single readings can be large or run the other way; note: 0% is about no effect; nearly all actives have a fitted effect of over 55% in size; growth read by luminescence after 48 h
# Cruzain noTriton – inhibitors of Trypanosoma cruzi cruzain without detergent; P25779; purified cruzain, Z-FR-AMC fluorescence, no detergent; Potency, µM, for the others: max response, negative = inhibition, hits mostly inhibitors; actives 2.3% (n = 200,000); AID 1476;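 note: plate controls were enzyme without inhibitor for no effect and buffer without enzyme for full effect; nearly all actives have a fitted effect of over 40% in size; top concentration of the series not given in the record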
#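 Purified cruzain at 1.5 nM, pre-incubated 15 min with compound at room temperature in 100 mM sodium acetate pH 5.5, 5 mM DTT, 0.00005% Triton X-100. Reaction started with 2 uM Z-FR-AMC; AMC fluorescence increase over 60 s gives rate.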
# StopGo reporter – lowers the luciferase signal of an FMDV 2A StopGo reporter; Potency, µM (top dose mostly 57.9 µM), without a hit: at the top dose signal change, negative = less light; human cells with a luciferase reporter of 2A StopGo recoding; control for the full effect not named in the record; actives 1.2% (n = 410,000); active = well fitted falling curve with a large enough effect; inconclusive = small, poorly fitted or top-dose-only effect; inactive = no such curve, though single readings can be large or run the other way; tested in HEK293T cells; note: % is set by controls: 0 for no effect and ±100 for the full control effect; nearly all actives have a fitted effect of over 45% in size; luciferase light after 4 h
# * = called active by the depositor; ? = inconclusive; . = not tested or not shown; & = joins results of further samples; [ ] = remark or other dose. Unless noted, calls come from the whole dose curve; as a rule, active = well fitted curve in the direction sought with a large enough effect; inconclusive = small, poorly fitted or top-dose-only effect, or another doubt; inactive = no such curve, though single readings can be large; an effect the other way counts as inactive or inconclusive. Potency is the fitted concentration of half-maximal effect.
# Values run as follows: Marburg entry inh	Lassa entry inh	NS1 inh	Cruzain Triton	RE007 growth inh	SARS PLP yeast	Cruzain noTriton	StopGo reporter
CCOc1ccccc1NC(=O)Cn1nnc(C(=O)NCc2cccs2)c1N
  ?	?	-3%	0.9%	7%	-13%	-13%	-26%&-17%
COC(=O)N(C)c1ccc(C(O)(C(=O)OC)C(F)(F)F)cc1 (stereo not drawn)
  -5%	-4%	-4%	-14%	17%	-13%	-9%	11%
Cc1cc(=O)nc2c3ccccc3n(CC(=O)NCCCN3CCOCC3)n12
  ?	10%[46.1 µM]	19%	.	-18%	3%	.	21%
CC1(C)Cc2noc(N)c2C(C)(C)N1OC(=O)c1ccco1
  6%	-16%	-1%	0.8%	-3%	-11%	4%	-10%
CCOC(=O)c1nn(-c2ccccc2C)c2nc(-c3ccc(C)cc3)c(C#N)c(=O)n12
  0%	-11%	6%	3.5%	-18%	.	6%	0%
Cc1ccc(C(=O)c2ccccc2C(=O)OCC(=O)NC(C)(C)C)cc1
  8%	-21%	.	.	6%	0%	.	?
Cc1cnc(-c2nnc(N(C)C(=O)c3ccccn3)s2)cn1
  .	.	1%	0.0%	.	-1%	-15%	.
Cn1cccc1CNC(=S)Nc1cc(F)cc(F)c1
  -1%[46.1 µM]	-19%	.	.	4%	-1%	.	-3%
COc1ccc(NC(=O)c2cc(-c3ccc(C)o3)nc3ccccc23)cc1
  0%	-7%	.	.	3%	.	.	2%
CCOC(=O)C1=C(C)NC2=C(C(=O)CC(C)(C)C2)C1c1ccc2c(c1)CCCN2C (stereo not drawn)
  -20%	13%	14%[9.22 µM]	4.9%	-8%	-3%	8%	28%
CC1SC(c2ccc(Cl)cc2)NC1=O (stereo not drawn)
  -4%	-14%	3%	-11%	9%	-2%	-9%	-3%
O=c1c2ccccc2nc(/C=C/c2cccc3ccccc23)n1-c1ccc(F)cc1F
  .	-1%[46.1 µM]	.	1.4%	.	.	?	-2%
C[C@@H](NC(=O)OC(C)(C)C)c1nnc(S(=O)(=O)Cc2ccccc2)o1
  ?	?	-78%	.	-12%	-4%	.	?
Cc1nn(C)c(C)c1CCC(=O)NC1CC(C)(C)Cc2c1cnn2-c1ccccc1 (stereo not drawn)
  -1%	8%	1%	.	0%	1%	.	-7%
O=C(CCc1ccccc1)NCc1ccc2c(c1)OCO2
  10%[46.1 µM]	25%[46.1 µM]	5%	.	10%	-3%	.	32%[activator]
CCN(CC)c1ccc(N)cc1
  .	.	.	0.6%	-28%	3%	-20%	?
O=C(c1csc2c1CCCC2)n1cccn1
  -7%[46.1 µM]	20%	.	.	?	.	.	-6%
C[C@H](NC(=O)c1nc[nH]c1C(=O)NCC(=O)OCc1ccccc1)c1ccccc1
  .	.	13%	.	-7%	8%	.	0%
O=C(c1ccc(NC(=S)NCc2ccco2)cc1)N1CCCCC1
  -1%[46.1 µM]	9%	.	.	13%	?	.	17%
Cc1ccccc1N1CCN(C2CCCN(C(=O)c3snnc3C)C2)CC1 (stereo not drawn)
  0%	?	1%	.	0%	?	.	-26%
CCC1COCCS(=O)(=O)N1Cc1cccc(C(F)(F)F)c1 (stereo not drawn)
  .	.	11%	.	-7%	-7%	.	-13%
CCN(C(=O)CSc1nnc(Cn2nnc3ccccc32)o1)c1nc(C)cs1
  -13%	8%	7%	-8.5%	24%	0%	9%	?
FC(F)(F)c1ccccc1CCN1CCNCC1
  -26%[46.1 µM]	14%[46.1 µM]	3%	.	8%	-2%	.	4%
CCc1ccc(/C=N/NC(=O)c2cc(C)on2)s1
  15%	?	-15%	-8.4%	3%	-7%	-6%	39%[activator]
Cc1ccc(NC(=O)c2nc[nH]c2C(=O)N[C@@H](C)C(=O)OC(C)(C)C)cc1
  .	.	-6%	.	-14%	-9%	.	-18%
CCOc1cc(/C=N/NC(=O)c2ccncc2)ccc1OC(=O)c1ccccc1
  .	.	-7%	.	19%	0%	.	-2%
CCN(Cc1nc(-c2ccccc2)no1)C(=O)COc1cccc(OC)c1
  ?	24%[46.1 µM]	6%	.	-3%	-1%	.	13%
C(=N\N=C\c1cccnc1)/c1cccnc1
  ?	-1%	2%	-3.8%	-13%	13%	9%	22%
CN1CCN(CC(=O)C23CC4CC(CC(C4)C2)C3)CC1
  ?	-1%	-7%	2.1%	-11%	-5%	-2%	-16%
CN(CC(=O)Nc1ccc(N2CCOCC2)cc1)C(=O)C12CC3CC(CC(C3)C1)C2
  -1%	19%	.	.	9%	2%	.	-2%
Cc1ccc(S(=O)(=O)/N=C(\Nc2cc(C)on2)c2ccc(Cl)cc2)cc1
  2%	-3%	10%	-4.5%	15%	15%	-13%	36%[activator]
CCC1CCCCN1C(=O)CN1C(=O)CSC1=O (stereo not drawn)
  4%	24%	0%	3.2%	0%	18%	5%	-25%
Cc1nc2cc(S(=O)(=O)N(C)C)ccc2n1-c1ccccc1
  4%	20%	-65%	4.8%	-8%	2%	18%	-14%
CC1CC(=O)N(c2ccc(C(C)C)cc2)C(=O)C1
  .	.	18%	.	10%	3%	.	0%
O=C(Nc1ccnn1C1CCN(C(=O)c2c(F)cccc2F)CC1)C1CC1
  -2%	4%	1%	.	1%	5%	.	-15%
O=[N+]([O-])c1ccccc1/C=N/Nc1nnc(-c2ccccc2)c(-c2ccccc2)n1
  ?	-12%	17%	-5.7%	0%	11%	?	-8%
CN1c2ccccc2C(=O)C(=C2SCCCS2)S1(=O)=O
  .	.	-7%	.	-12%	-2%	.	41%[activator]
COc1ccccc1C(=O)OCC(=O)NC12CC3CC(CC(C3)C1)C2
  13%[46.1 µM]	15%	.	.	9%	6%	.	5%
COc1ccccc1-c1nnc(SC(C)C(=O)Nc2ccc(C(N)=O)cc2)o1 (stereo not drawn)
  2%	-3%	.	.	-12%	2%	.	-17%
Cc1ccccc1N/C(SCc1cccc(Br)c1)=C(/C#N)C(N)=O
  17%	-21%	1%	-6.7%	-2%	-12%	4%	-26%
Cc1ccc(OCc2ccc(-c3ccccc3)cc2)c([N+](=O)[O-])n1
  -1%[46.1 µM]	-21%	-21%	.	4%	6%	.	0%
COC(=O)CNC(=O)c1c(-c2ccccc2Cl)noc1C
  7%[46.1 µM]	6%	-3%	3.8%	44%	2%	4%	-26%
Cc1cccc(C)c1NC(=O)C(Cl)=C(Cl)Cl
  ?	-4%	5%	.	22%	-1%	.	1%
CCC(C)NC(=O)CCS(=O)(=O)c1ccc(Br)s1 (stereo not drawn)
  21%	1%	11%	7.6%	25%	5%	3%	-7%
CCC1=NN2C(=N)/C(=C/c3c(C)nn(-c4ccccc4)c3Cl)C(=O)N=C2S1
  -8%	?	12%	-5.8%	-29%	-8%	?	?
COc1cc(-c2c(-c3ccc4c(c3)OCO4)noc2-c2ccsc2)ccc1F
  .	.	-8%	.	12%	-4%	.	6%
COc1ccc2cc(C#N)c(SCC(=O)NNC(=O)Cc3ccccc3)nc2c1
  ?	12%	6%	4.5%	0%	5%	13µM*	6%
CCOc1cc(/C=C2\N=C(SCC)SC2=O)cc([N+](=O)[O-])c1OC(C)=O
  18%	11%	6%	-12%	-14%	-1%	?	-30%
COc1cccc(CNC(=O)c2ccc(C)c(NC3=NC4CS(=O)(=O)CC4S3)c2)c1 (stereo not drawn)
  .	.	-3%	.	0%	0%	.	0%
Cc1[nH]n(C)c(=O)c1C(=O)c1c(-c2ccccc2Cl)noc1C
  1%[46.1 µM]	?	-1%	.	2%	-1%	.	?

# Next section.
# Values run as follows: Marburg entry inh	Lassa entry inh	NS1 inh	Cruzain Triton	RE007 growth inh	SARS PLP yeast	Cruzain noTriton	StopGo reporter
COc1nc(-c2ccncc2)nc2ccccc12
  -29%	27%	-76%	4.9%	-12%	-12%	6%	-18%
COc1ccc(CCn2c(=N)c(C(=O)NCC3CCCO3)cc3c(=O)n4ccccc4nc32)cc1OC (stereo not drawn)
  .	.	3%	.	-15%	0%	.	-2%
Cc1cc(C)nc(SCNC(=O)c2ccc(F)cc2)n1
  1%	-14%	-2%	2.3%	12%	5%	-2%	-8%
CS(=O)(=O)c1cccc(C(=O)OCC(=O)c2ccc3c(c2)OCCO3)c1
  -18%	-5%[46.1 µM]	.	.	-18%	-3%	.	39%[activator]
CCOc1ccc(/C=N/OCC(=O)NCc2ccc3c(c2)OCO3)cc1OC
  -22%	-10%	-3%	-2.1%	-11%	7%	-3%	?
O=C(Nc1ccc(CN2CCOCC2)cc1)c1cccc(-c2cc3ccccc3oc2=O)c1
  ?	?	2%	.	-12%	1%	.	-17%
COc1cc2ccccc2cc1C(=O)NC1CCCC1
  ?	14%	.	.	-27%	-9%	.	35%[activator]
Cc1ccc(-n2c(O)c(C=Nc3cc(C)on3)c3ccccc3c2=O)c(C)c1
  ?	?	1%	-4.1%	-12%	-18%	-2%	-8%
O=C(NC1CCCC1)c1cc(-c2ccccc2O)on1
  0%[46.1 µM]	20%	-6%	.	-13%	-1%	.	21%
CCCOc1ccc(/C=c2\sc3nc(-c4ccco4)nn3c2=O)cc1OCC
  -2%&-2%[46.1 µM]	2%	9%	-0.4%	?	2%	8%	0%
COc1cccc(/C=N/NC(=O)NC23CC4CC(CC(C4)C2)C3)c1O
  ?	?	.	.	0%	.	.	-14%
CCc1nnc2n1N=C(c1ccc(OC)cc1)CS2
  ?	?	-8%	-6.1%	-22%	-1%	-2%	-6%
CCCCn1c(=O)c2oc3ccccc3c2n(Cc2ccccc2C)c1=O
  .	1%[46.1 µM]	.	-0.1%	.	.	0%	-1%
CCn1c(SCC(N)=O)nnc1-c1cc2c(C)nn(-c3ccccc3)c2s1
  -1%	-17%	-3%	-3.1%	-6%	1%	?	-6%
CCCC(=O)n1nc(-c2ccc(OC)cc2)nc1N
  -2%	6%	1%	-8.5%	-6%	-10%	10%	11%
Cc1ccccc1OCC(=O)Nc1ccc(C(=O)Nc2ccccc2C(=O)O)cc1
  -8%[46.1 µM]	5%[46.1 µM]	-2%	.	-5%	4%	.	-1%
